HIV TAR-Tat – HIV-1 TAR-Tat binding disruption. HIV-1 TAR RNA, Tat peptide displacement FRET; hits give high values. z-score (concentration not given with the values). hit rate 0.6% among 100,000;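 also: score is relative to mean and SD of negative controls; some compounds called inactive have numbers as strong as hits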
CDC25B-CDK2 inh – human CDC25B-CDK2/CyclinA binding inhibition; P30305+P24941; HTRF CDC25B-CDK2/CyclinA binding, anti-His/anti-Flag; hits give high values; z-score (no concentration beside the values); hit rate 0.72% among 94,000; AID 1259370;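 also: score is relative to mean and SD of negative controls; strong numbers were not always called active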
Starred values were filed as active, the others as inactive; x = no result given.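 The calls were made as follows: active = z-score from 3 up in half or more of its runs; inactive = the rest.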 Outcome played no part in choosing rows; any-hit rate near 0.97%.

Molecule	CDC25B-CDK2 inh	HIV TAR-Tat
CCN1CCN(CCNC(=O)C2CCCN(c3nc4cccnc4s3)C2)CC1 (stereo not drawn)	x	-0.1
Cn1c(=O)c2c(-c3ccc(Br)cc3)n(Cc3ccccc3)cc2n(C)c1=O	-1.9	-0.07
CCNC(=O)c1c(NC(=O)c2nn(-c3ccc(F)cc3)ccc2=O)sc2c1CCCC2	-1.7	1.2
Cc1csc2nc(COC(=O)COc3ccccc3F)cc(=O)n12	x	1.5
CCC1CCCCN1c1c(-c2ccc(C)c(C)c2)c(=O)c1=O (stereo not drawn)	x	1
Cc1ccc(C(C)C)c(OCCCn2c(=O)oc3ccccc32)c1	-2.8	-0.15
Cc1cc(=O)n2[nH]c(NC(=O)C(C)C)nc2n1	-1.5	0.57
CC(=O)Nc1ccc(OCc2cc(=O)n3ccsc3n2)cc1	-0.03	0.71
Cc1cc(C)cc(Oc2coc3c(CN4CCOCC4)c(O)ccc3c2=O)c1	-2.2	-1.4
C=CCOC(=O)C1=C(C)Nc2nc(SCCC)[nH]c(=O)c2C1c1ccc(Cl)cc1 (stereo not drawn)	-1	-0.37
O=C(NCC1CCCO1)Nc1c[nH]c2ccccc2c1=O (stereo not drawn)	-2	1.2
COc1ccc(-c2oc3ccccc3c(=O)c2OS(=O)(=O)c2cc(Cl)ccc2Cl)cc1	-2.2	x
Cc1nc(-c2ccc(C)c(S(=O)(=O)N3CCOCC3)c2)cs1	x	0.58
Cc1ccc(Sc2ncccc2C(N)=O)cc1	-0.91	x
Cc1ccc(-c2cc(C(=O)N3CCN(c4c(C)n(C)c(=O)n(C)c4=O)CC3)c3ccccc3n2)cc1C	x	1.9
COC(=O)c1sc2ccccc2c1S(=O)(=O)Nc1cc(Cl)ccc1OC	x	-1
Fc1cccc(-c2nnn3c2nc(Cl)c2ccccc23)c1	-1.1	-0.56
O=C(c1ccc2c(c1)N(Cc1ccccc1)C(=O)c1ccccc1S2(=O)=O)N1CCc2ccccc21	-0.53	-0.31
Cc1nc(-n2[nH]c(C)c(CCC(=O)Nc3ccc(Br)cc3)c2=O)sc1C	-1.1	0.5
Cc1ccc(Cn2nc([N+](=O)[O-])cc2C(=O)O)cc1	-1.9	-0.31
O=C(C1=C(Nc2ccc3c(c2)OCCO3)c2ccccc2S1(=O)=O)N1CCOCC1	x	0.14
Cn1cc(Br)c(=O)n(C)c1=O	-0.49	x
Cc1ccc2c(c1)-c1onc(C(=O)N(C)c3ccc(Br)cc3)c1CO2	x	2.5
CC1CCCN(C(=O)c2noc3c2COc2ccccc2-3)C1 (stereo not drawn)	-1.2	0.55
C[C@H]1CC2C3CCC4=CC(=O)C=C[C@]4(C)[C@@]3(Cl)[C@@H](O)C[C@]2(C)[C@@]1(O)C(=O)CO (stereo partly drawn)	-1.5	x
Nc1cc(=O)[nH]c(SCC(=O)Nc2ccc(Cl)cn2)n1	-1.5	-0.1
Cc1cc(S(=O)(=O)n2cccc2)c(C)cc1Cl	-0.58	x
O=c1c(Nc2cccc(F)c2)c(-c2ccc(Cl)cc2)c1=O	x	-0.69
O=C(O)c1ccc2c(c1)C1C3CCC(C3)C1C(c1c(F)cccc1Cl)N2 (stereo not drawn)	-0.6	-0.42
O=C(Nc1nnc(-c2cccc(F)c2)s1)C(=O)c1c[nH]c2ccccc12	-0.44	2.7
CSc1ccc(CCNC(=O)C(CCS(C)(=O)=O)N2Cc3ccccc3C2=O)cc1 (stereo not drawn)	x	-0.73
O=C(Nc1ccc(F)cc1)N1CCN(c2ccccc2F)CC1	-1.9	3.7
CCSc1nc2c(c(=O)[nH]1)C(c1ccc(F)cc1F)CC(=O)N2 (stereo not drawn)	-1.5	1.1
CCN(CC)CCNC(=O)C1CCCN(c2nn3c(=O)c4c(nc3s2)CCCC4)C1 (stereo not drawn)	x	0.78
CCc1ccc(-c2[nH]c3ccccc3c2N)cc1	x	0.38
COc1ccc(NS(=O)(=O)c2sc(Cl)cc2Br)c(OC)n1	0.6	x
Cc1ccc(N2CCCS2(=O)=O)cc1NS(=O)(=O)CCc1ccccc1	x	-0.57
CC1CCCCN1C(=O)C1=CC(c2ccc(F)cc2)=NS(=O)(=O)N1C (stereo not drawn)	-0.02	1.4
CN1CCN(CCNC(=O)NC2COc3ccccc3C2)CC1 (stereo not drawn)	x	1.3
c1ccc2c(CN3CCN(Cc4ccncc4)CC3)c[nH]c2c1	-0.84	3.1
COc1ccc(S(=O)(=O)N2CCN(c3cc(N4CCCC4)nc(C)n3)CC2)cc1OC	-1.6	-1.1
O=C(CSc1nc2ccsc2c(=O)n1-c1ccc(Cl)cc1)Nc1ccc2c(c1)OCCO2	x	-1.3
Cc1cc(C)cc(NC(=O)CSC2=Nc3ccccc3C3=NC(C)C(=O)N23)c1 (stereo not drawn)	x	1.1
CN(C)c1c(F)cc(C(=O)NCc2ccccc2)cc1F	1.4	x
NC(=O)C1CCN(C2CC(=O)N(CCC(c3ccccc3)c3ccccc3)C2=O)CC1 (stereo not drawn)	-1	x
Cc1cc(C)c2c(=O)[nH]n(C3CC(C)N(C)CC3C)c2n1 (stereo not drawn)	-0.94	x
Cc1nnc(Sc2c(N)n(C)c(=O)[nH]c2=O)s1	-0.8	1.2
CN1CCCC1CCOC(C)(c1ccccc1)c1ccc(Cl)cc1 (stereo not drawn)	-2.4	x
Nc1nc2c(s1)C(=O)CC(c1ccccc1)C2 (stereo not drawn)	-1.1	0.27
COc1cc(/C=c2\sc3nc4ccccc4n3c2=O)cc(Cl)c1OS(=O)(=O)c1ccc(C)cc1	-2.7	x

(more compounds)
Molecule	CDC25B-CDK2 inh	HIV TAR-Tat
COc1cccc(N2CCN(S(=O)(=O)c3cc(-c4noc(C5CC5)n4)cs3)CC2)c1	x	-0.35
CCCCN(CC)Cc1ccc(CNS(=O)(=O)c2cc3[nH]c4c(c3cc2C)C(=O)CC(C)(C)C4)o1	x	0.56
O=S(=O)(NCCc1csc2nc(-c3ccccc3F)nn12)c1ccc2c(c1)CCCC2	x	0.77
O=S(=O)(Nc1nc2n(n1)C(c1ccccc1)C=C(c1ccccc1)N2)c1ccccc1 (stereo not drawn)	-1.2	x
O=C(CSc1ncccn1)c1ccc(O)c(O)c1	1.6	-0.12
CCc1ccc2nc(N3CCC(C(=O)NC4CC4)CC3)sc2c1	0.75	x
COc1ccc(-c2noc(=O)n2Cc2ccc(F)cc2Cl)cc1	-0.48	0.95
COc1ccc(Nc2ncnc3onc(-c4ccc(F)cc4)c23)cc1	x	-0.07
O=C(NC1CCCCC1)NC(c1ccccc1)c1nnc(-c2ccc(Cl)cc2)o1 (stereo not drawn)	x	1.6
Cc1ccc2nc(-c3ccc(N4C(=O)c5cccnc5C4=O)cc3)sc2c1	-1.4	0.46
Cc1nn(-c2ccc(N3CCOCC3)nn2)c(C)c1CCC(=O)NCCN1CCOCC1	x	-0.48
O=C(C1CCN(c2ccc(Cl)cc2)C1=O)N1CCCCC1 (stereo not drawn)	x	0.37
O=S(=O)(c1ccccc1)N1CCC(N2CCCCC2)CC1	-0.68	1.8
CCOC(=O)C1CCN(S(=O)(=O)c2cc3c(cc2Cl)NC(=O)CO3)CC1	x	-5.3
O=C(Nc1ccc(Cl)cc1)Oc1cccc(N2CCOCC2)c1	-2.7	x
CCC(Sc1nnc(C)n2c1cc1occc12)C(=O)Nc1cc(Cl)ccc1C (stereo not drawn)	x	2.5
O=C(CSc1nc2ncccc2o1)Nc1ccccc1Cl	x	-0.59
Cc1cc(CC(=O)O)n(C)c1C(=O)c1ccc(Cl)cc1	x	1.2
CCCc1nc2sc3c(NCC4CCCO4)ncnc3c2c2c1COC(C)(C)C2 (stereo not drawn)	-0.32	0.74
COc1ccc(-c2cc(C(=O)Nc3ccc(F)c([N+](=O)[O-])c3)c3ccccc3n2)cc1OC	-2.6	x
CCOC(=O)c1ccn(-c2nc(-c3ccc(F)cc3)cc(C(F)(F)F)n2)n1	0.75	x
CC(C)OCCCNC(=O)c1cnc2sc(N3CCCCC3)nn2c1=O	x	0.13
O=C(Cn1ncc2c([nH]c3ccccc32)c1=O)Nc1ccc2c(c1)OCCO2	x	1.2
CCn1cc(CCCC(=O)NCCC2=CCCCC2)c2ccccc21	x	3.5
CCN(CC)C(=O)CSc1nc2ccccc2c(=O)n1Cc1ccco1	x	1.6
Cc1ccc(-c2onc(C)c2C)cc1S(=O)(=O)NCCc1cccs1	x	1.3
CCn1nc(C)c(CCNC(=O)Nc2cccc(Br)c2)c1C	x	1.2
Nc1ccc2oc(-c3cccc(Cl)c3)nc2c1	-0.36	0.42
Cc1ccc(NS(=O)(=O)c2ccc(-c3n[nH]c(C)c3C)s2)cc1	x	-0.71
COc1ccc(Nc2c(-c3ccc(SC)cc3)nc3cnccn23)cc1	-2.5	2.3
O=C(CCc1nnc2ccc(NCc3ccco3)nn12)Nc1ccc2c(c1)OCCO2	x	1.2
O=C(NCC1CCCO1)c1cc(S(=O)(=O)N2CCCCC2)c[nH]1 (stereo not drawn)	x	2.1
Cc1nnc(NCc2ccccc2)c2c1nnn2Cc1ccccc1Cl	-1.9	-0.37
OCCCNc1ncnc2onc(-c3ccc(F)cc3)c12	x	-0.4
O=C(c1noc2c1CCc1sccc1-2)N1CCc2ccccc21	x	-0.59
CCc1nc(-c2csc(S(=O)(=O)N3CCN(C(=O)c4ccco4)CC3)c2)no1	x	5.7
Cc1nc(CNC(=O)c2oc3ccccc3c2C)cs1	-1.2	1.1
CC1=CC(C)(C)N(C(=O)CSc2ncn[nH]2)c2cc(C)ccc21	-0.7	-0.2
CCOC(=O)c1c(CSc2ccsc2)n(C)c2cc(Br)c(O)c(CN(C)C)c12	-1.2	0.55
COc1ccc(CN2C(=O)c3oc4ccccc4c(=O)c3C2c2ccc(O)c(OC)c2)cc1 (stereo not drawn)	0.02	-0.79
CCOC(=O)c1cnc(=S)[nH]c1N	1.1	x
Cc1cc(Br)ccc1NC(=O)Nc1noc2c1COc1ccccc1-2	x	1.7
CC1=C(c2ccccc2)S(=O)(=O)NC1=NCCCN1CCN(C2CCCCC2)CC1	-1.5	0.05
OC[C@H]1O[C@@H](n2cnc3c(NC4CCCC4)ncnc32)C(O)[C@H]1O (stereo partly drawn)	-2.1	x
Cc1ccc(C2Nc3c(C)ccc(C(=O)O)c3C3C=CCC32)cc1 (stereo not drawn)	-1.9	-1.4
Clc1ccc(-c2nnc3ccc(SCc4cccnc4)nn23)cc1	-1.6	x
Cc1cccc(-c2nc3c4c(C)c(C)n(-c5nccs5)c4ncn3n2)c1	-2.2	0.68
CCSc1nc2c(c(=O)n1CC)C1(CCCC1)Cc1ccccc1-2	-0.95	0.3
CC(C)(C)C1CCc2c(sc(NC(=O)COc3ccccc3)c2C(N)=O)C1 (stereo not drawn)	-2.9	0.25
CCN1CCN(c2nc3ncn(CC(=O)Nc4ccc5c(c4)OCO5)c(=O)c3s2)CC1	x	-0.36

Five entries out of the list, ordered by molecular weight, high to low.
Molecule	CDC25B-CDK2 inh	HIV TAR-Tat
COc1ccc(CN2C(=O)c3oc4ccccc4c(=O)c3C2c2ccc(O)c(OC)c2)cc1 (stereo not drawn)	0.02	-0.79
CC1=C(c2ccccc2)S(=O)(=O)NC1=NCCCN1CCN(C2CCCCC2)CC1	-1.5	0.05
CCn1nc(C)c(CCNC(=O)Nc2cccc(Br)c2)c1C	x	1.2
Cc1cccc(-c2nc3c4c(C)c(C)n(-c5nccs5)c4ncn3n2)c1	-2.2	0.68
Clc1ccc(-c2nnc3ccc(SCc4cccnc4)nn23)cc1	-1.6	x

(continued)
Molecule	CDC25B-CDK2 inh	HIV TAR-Tat
C=CCn1c(N2CCN(c3ccccc3)CC2)nc2c1c(=O)[nH]c(=O)n2C	0.45	x
CC1S/C(=N\N=C/C23CC4CC(CC(C4)C2)C3)NC1=O (stereo not drawn)	0.35	x
Cc1cccn2cc(CCNC(=O)CC3CCCC3)nc12	-1.4	x
CCOC(=O)c1c(NC(=O)CCC(=O)OC)sc2c1CC(C)(C)OC2	-1.7	-0.8
Cc1cc(C)c(Cn2c3ccccc3c3cnn(CC(=O)NCc4ccco4)c(=O)c32)c(C)c1	-0.66	x
CCCCN(CC)CCCNC(=O)c1cc2c(s1)-c1ccc(Cl)cc1S(=O)(=O)C2	-1.3	-1
CCCCNC(=O)c1cnc2sc(N3CCCCC3)nn2c1=O	x	1.8
CSc1nnc(NC(=O)c2nn(-c3ccc(Cl)cc3)ccc2=O)s1	-0.4	0.93
CNC(=O)C1CCC(Cn2c(=O)c3sccc3n(CC(=O)Nc3ccc(F)cc3)c2=O)CC1 (stereo not drawn)	x	0.05
CC(=O)N1c2ccccc2CC1C(=O)NCCCOC(C)C (stereo not drawn)	x	1.4
CCOC(=O)N1CCN(c2nc(C)cc(C(F)(F)F)n2)CC1	-0.85	0.89
COc1ccc(Cn2cc3c(-c4ccc(F)cc4)nnc-3c3cc4c(cc32)OCO4)cc1	-2.9	-1.1
Cc1nccc(-c2cccc(N/N=C(\C#N)S(=O)(=O)c3ccccn3)c2)n1	-2	x
O=C(Nc1ccc(OC(F)(F)F)cc1)N1CCN(c2ncccn2)CC1	0.63	x
CCN(CC)c1ccc(NC(=O)C2CC3CCCN3C23C(=O)N(C)c2ccccc23)c(C)c1 (stereo not drawn)	x	1.1

Part of the list above, set out differently.
CC(=O)N1c2ccccc2CC1C(=O)NCCCOC(C)C (stereo not drawn)
  CDC25B-CDK2 inh = x
  HIV TAR-Tat = 1.4

CCOC(=O)N1CCN(c2nc(C)cc(C(F)(F)F)n2)CC1
  CDC25B-CDK2 inh = -0.85
  HIV TAR-Tat = 0.89

From PubChem
